MLL AF4-AF9 inh: inhibitors of AF4 peptide binding to AF9, primary screen, biochemical, AlphaScreen, biotin-AF4 peptide, FLAG-AF9, single point; Protein AF-9 (Homo sapiens), P42568; inhibition, % at 10 µM; 0.47% of 350,000 active; AID 651704, 2012;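 active = every replicate reaching a set inhibition limit, whatever the replicate mean, cut at about 25% in these data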;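 note: 0% = plate neutral control median and 100% = total signal loss; the record names both 10 and 1 µM as test concentration; the first replicate is given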
Target sequence (P42568 whole entry, looked up): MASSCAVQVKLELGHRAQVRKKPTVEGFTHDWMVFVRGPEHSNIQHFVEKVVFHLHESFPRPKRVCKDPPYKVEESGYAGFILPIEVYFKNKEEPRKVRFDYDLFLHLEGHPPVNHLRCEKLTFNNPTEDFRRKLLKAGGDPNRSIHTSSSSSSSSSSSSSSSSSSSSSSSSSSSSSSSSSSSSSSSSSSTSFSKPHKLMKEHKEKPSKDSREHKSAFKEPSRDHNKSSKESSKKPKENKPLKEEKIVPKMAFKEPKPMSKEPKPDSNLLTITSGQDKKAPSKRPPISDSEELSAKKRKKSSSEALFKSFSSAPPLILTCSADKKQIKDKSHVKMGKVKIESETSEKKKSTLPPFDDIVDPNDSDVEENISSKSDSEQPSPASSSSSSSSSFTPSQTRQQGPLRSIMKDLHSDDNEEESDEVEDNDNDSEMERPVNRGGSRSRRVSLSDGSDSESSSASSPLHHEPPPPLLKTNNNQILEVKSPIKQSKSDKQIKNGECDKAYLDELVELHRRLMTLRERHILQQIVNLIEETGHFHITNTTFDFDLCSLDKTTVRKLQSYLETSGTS
rRNA inh HTS: reduced GFP signal of wild-type E. coli, primary screen, bacterial rRNA inhibitor project, GFP/RFP fluorescence, OD600, single point. E. coli WT GFP vs humanized-ribosome RFP mutants, 24 h; stronger effect = lower value; DMSO median 0, no signal -100. 1.6% of 350,000 active. GFP signal change (wild-type ribosome), % (no concentration beside the values). AID 720706, 2013;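 active = significant combined selectivity score with lowered wild-type GFP, culture density cut under 30%, mutant RFP and density less affected; inactive = any of these conditions unmet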; note: one replicate is shown; some compounds called inactive have numbers as strong as hits
rRNA inh HTS OD600: second read-out of rRNA inh HTS, no call of its own (marks repeat the call); OD600 change, %; measured here: OD600 growth;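 optical density of the mix in the first replicate; 0 = DMSO median and -100 = no signal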
rRNA inh HTS RFP: second read-out of rRNA inh HTS, no call of its own (marks repeat the call); RFP signal change, %; measured here: RFP humanized mutant strains;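 first replicate; 0 = DMSO median and -100 = no signal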
An asterisk follows results filed as active; & = joins results of further samples. The list is partial; count on the stated rates, not on these rows.

Screens by letter – A = MLL AF4-AF9 inh; B = rRNA inh HTS; C = rRNA inh HTS OD600; D = rRNA inh HTS RFP
> C[C@@H]1CCCCO[C@@H](CN(C)S(=O)(=O)c2ccc(F)cc2)[C@H](C)CN([C@@H](C)CO)C(=O)c2cc(NC(=O)Nc3ccc4c(c3)OCO4)ccc2O1
  A = 0.9; B = 1; C = 1; D = -1.0

> CNC[C@@H]1Oc2cc(-c3cccnc3)ccc2S(=O)(=O)N([C@H](C)CO)C[C@H]1C
  A = -2.0; B = 1; C = 2; D = 2.1

> Cc1ccc(S(=O)(=O)N2[C@@H]3CNC[C@H]2C3c2ccc(/C=C/c3ccccc3)cc2)cc1 (some centres not stated)
  A = -2.4&4.3; B = -28&-56; C = -32&-76; D = -3.4&-16

> C/C=C/c1ccc2c(c1)O[C@H](CN(C)C(=O)Nc1ccccc1)[C@H](C)CN([C@@H](C)CO)S2(=O)=O
  A = 1.5; B = -3; C = -8; D = 1.3

> CO[C@H]1CN(C)C(=O)c2ccc(NC(=O)C3CCC3)cc2OC[C@H](C)N(Cc2cccnc2)C[C@@H]1C
  A = 0.4; B = -4; C = -1; D = -0.7

> NC(=O)NN=C1CCN2CCCc3cccc1c32
  A = 4.1; B = 8; C = 12; D = -1.3

> O=C(C[C@@H]1C=C[C@H](NC(=O)Nc2cc(F)ccc2F)[C@@H](CO)O1)NCc1ccncn1
  A = 0.3; B = 3; C = -6; D = -0.2

> C[C@@H]1CN([C@H](C)CO)C(=O)c2cc(C3=CCCC3)cnc2O[C@@H]1CN(C)Cc1ccc(F)cc1
  A = -3.9; B = 2; C = 5; D = 3.5

> O=C(C1CCC1)N1C[C@@H]2N[C@H](C1)C2c1ccc(-c2cccc(F)c2)cc1 (some centres not stated)
  A = 3.9&-4.9; B = -4&0; C = -16&-16; D = 0.0&0.1

> O=C(C[C@H]1CC[C@@H](NC(=O)c2ccncc2)[C@H](CO)O1)NCCc1ccncc1
  A = -0.4; B = 3; C = 8; D = -1.0

> O=C(CC1CC1)N1CC(=O)N2[C@H](C1)[C@@H](c1ccc(C#Cc3ccccc3)cc1)[C@@H]2CO
  A = -4.8; B = -54; C = -68; D = -8.8

> COc1ccccc1-c1ccc2c(c1)O[C@@H](CN(C)S(=O)(=O)c1ccc(F)cc1)[C@@H](C)CN([C@H](C)CO)S2(=O)=O
  A = -1.4; B = -1; C = 8; D = -0.6

> CNC[C@H]1Oc2ccc(NS(=O)(=O)c3ccc(Cl)cc3)cc2C(=O)N([C@@H](C)CO)C[C@@H]1C
  A = -1.8; B = 3; C = 7; D = 3.8

> O=C(C[C@@H]1CC[C@H](NC(=O)c2ccncc2)[C@H](CO)O1)NCC1CC1
  A = -4.1; B = 1; C = -1; D = 0.6

> COc1ccc(S(=O)(=O)Nc2ccc3c(c2)C(=O)N([C@H](C)CO)C[C@@H](C)[C@H](CN(C)C(=O)Nc2c(C)noc2C)OCCCC[C@@H](C)O3)cc1
  A = -3.9; B = 1; C = 1; D = 2.0

> COc1ccc(S(=O)(=O)Nc2ccc3c(c2)C(=O)N([C@@H](C)CO)C[C@@H](C)[C@@H](CN(C)Cc2ccc4c(c2)OCO4)O3)cc1
  A = 2.0; B = 1; C = 3; D = 2.8

> C[C@@H]1CCCCO[C@@H](CN(C)C(=O)C2CCCCC2)[C@@H](C)CN([C@H](C)CO)C(=O)c2cc(NC(=O)Nc3ccc(C(F)(F)F)cc3)ccc2O1
  A = -1.2; B = 4; C = 7; D = 1.0

> CCNC(=O)C[C@H]1C=C[C@@H](NC(=O)C2CCOCC2)[C@H](CO)O1
  A = -1.0; B = 4; C = 5; D = -0.5

> C[C@@H]1CCCCO[C@@H](CN(C)S(=O)(=O)c2ccc(Cl)cc2)[C@H](C)CN([C@H](C)CO)C(=O)c2cc(NS(=O)(=O)c3ccccc3)ccc2O1
  A = -8.4; B = 2; C = 2; D = 2.2

> CCS(=O)(=O)Nc1ccc2c(c1)C(=O)N(C)C[C@H](OC)[C@@H](C)CN(C(=O)CN(C)C)[C@@H](C)CO2
  A = -1.4; B = 3; C = 2; D = -2.2

> O=C(CC1CC1)N1CC[C@@H]2[C@H]1c1cc(-c3cccc(F)c3)ccc1N[C@@H]2CO
  A = 5.6; B = -51; C = -71; D = -4.8

> CCOC(=O)C(CNc1ccc(O)cc1)NC(=O)c1ccccc1 (configuration not stated)
  A = -1.7; B = 3; C = 12; D = 53

> C[C@H](CO)N1C[C@H](C)[C@H](CN(C)S(=O)(=O)c2ccc(F)cc2)Oc2ncc(C#CC3(O)CCCC3)cc2C1=O
  A = -5.6; B = -3; C = -6; D = -0.5

> CN(C(=O)c1ccc(NC(=O)Cc2ccc(NC(=O)C3CCCN(C(=O)C4CC4)C3)cc2)cc1)C1CCCC1 (configuration not stated)
  A = -0.9; B = 9; C = 15; D = -5.3

> COc1cc(-c2cc(NC(C)=O)c3ncc(-c4ccc(C(C)=O)cc4)n3c2)cc(OC)c1OC
  A = -0.7; B = 2; C = -2; D = 6.1

Full records, looked up by structure. Order of values: MLL AF4-AF9 inh, rRNA inh HTS, rRNA inh HTS OD600, rRNA inh HTS RFP
COc1ccccc1-c1ccc2c(c1)O[C@@H](CN(C)S(=O)(=O)c1ccc(F)cc1)[C@@H](C)CN([C@H](C)CO)S2(=O)=O as listed: -1.4, -1, 8, -0.6
COc1ccc(S(=O)(=O)Nc2ccc3c(c2)C(=O)N([C@@H](C)CO)C[C@@H](C)[C@@H](CN(C)Cc2ccc4c(c2)OCO4)O3)cc1 as listed: 2.0, 1, 3, 2.8

Additional compounds follow:
Screens by letter – A = MLL AF4-AF9 inh; B = rRNA inh HTS; C = rRNA inh HTS OD600; D = rRNA inh HTS RFP
> C[C@@H]1CCCCO[C@H](CN(C)S(C)(=O)=O)[C@@H](C)CN([C@@H](C)CO)C(=O)c2cc(NS(C)(=O)=O)ccc2O1
  A = -3.0; B = -5; C = 7; D = -3.6

> O=C(Nc1cccc(S(=O)(=O)NC2=NCCC2)c1)c1ccc(OC(F)F)cc1
  A = -4.6; B = 0; C = 6; D = -4.0

> CO[C@H]1CN(C)C(=O)c2ccc(NS(=O)(=O)c3ccccc3Cl)cc2OC[C@@H](C)NC[C@H]1C
  A = -1.3; B = 2; C = 4; D = 0.2

> CCCNC(=O)N[C@H]1C=C[C@@H](CC(=O)NC2CCC2)O[C@@H]1CO
  A = -1.3; B = 2; C = 2; D = 0.4

> CCNC(=S)N1CCC(C(=O)c2ccc(F)cc2)CC1
  A = 1.6; B = 0; C = 13; D = 0.2

> COc1ccc(-c2sc3ccccc3c2-c2ccc(OC)cc2F)cc1
  A = 1.1; B = 16; C = 14; D = 0.1

> O=C(C[C@@H]1CC[C@@H](NC(=O)c2ccccc2)[C@@H](CO)O1)NCc1ccc(Oc2ccccc2)cc1
  A = -1.1; B = -6; C = -21; D = -0.1

> O=C(N[C@H]1CC[C@@H](CCn2cc(-c3ccccn3)nn2)O[C@@H]1CO)c1ccncc1
  A = 0.0; B = 2; C = 1; D = 0.7

> O=C(C1CC1)N1C[C@H]2[C@@H](c3ccccc31)[C@@H](CO)N2Cc1ccccc1Cl
  A = -4.9; B = -12; C = -27; D = 3.3

> CC(C)NC(=O)N(C)C[C@@H]1Oc2ncc(C#Cc3cccc(F)c3)cc2C(=O)N([C@H](C)CO)C[C@@H]1C
  A = -2.5; B = 0; C = 11; D = -2.4

> CO[C@@H]1CN(C)C(=O)c2cc(NC(=O)C3CCOCC3)ccc2OC[C@@H](C)N(Cc2cccnc2)C[C@@H]1C
  A = -1.0; B = 7; C = 5; D = 0.5

> CC(C)NC(=O)Nc1ccc2c(c1)C(=O)N([C@H](C)CO)C[C@H](C)[C@@H](CN(C)C(=O)Nc1ccc(F)cc1)OCCCC[C@H](C)O2
  A = -1.8; B = -1; C = -5; D = 4.6

> COc1ccc(NC(=O)Nc2ccc3c(c2)[C@@H]2C[C@@H](CC(=O)NCc4ccccn4)O[C@@H](CO)[C@@H]2O3)cc1
  A = -0.1; B = 0; C = -3; D = 0.0

> CCCc1cn(CC[C@H]2CC[C@H](NC(=O)C3CCC3)[C@@H](CO)O2)nn1
  A = -1.3; B = 0; C = -1; D = -3.4

> COc1ccc(NC(=O)N[C@H]2C=C[C@H](CC(=O)NC3CCCCC3)O[C@H]2CO)cc1
  A = 0.3; B = -9; C = -8; D = -0.1

> O=C(C[C@H]1CC[C@H]2[C@@H](COC[C@@H](O)CN2Cc2cc(F)ccc2F)O1)N[C@H]1CCN(Cc2ccccc2)C1
  A = 4.3; B = -6; C = 7; D = -2.0

> C[C@@H]1CN([C@@H](C)CO)C(=O)c2cccc(NS(=O)(=O)c3ccc(F)cc3)c2O[C@H]1CN(C)Cc1ccccc1
  A = -5.6; B = -2; C = -1; D = 2.5

> O=C(NCc1ccccc1)c1cccc(NC(=O)C2CCCCC2)c1
  A = -3.5; B = -30*; C = -22*; D = -7.7*

> C[C@@H]1CCCCO[C@H](CN(C)C(=O)Nc2ccc(C(F)(F)F)cc2)[C@@H](C)CN([C@H](C)CO)C(=O)c2cc(NS(C)(=O)=O)ccc2O1
  A = -3.3; B = -1; C = 8; D = -2.0

> C[C@@H]1CN([C@H](C)CO)C(=O)c2cccc(NC(=O)C3CC3)c2O[C@H]1CN(C)C(=O)Nc1ccc2c(c1)OCO2
  A = -11; B = 1; C = 9; D = 2.3

> C[C@H]1CN([C@@H](C)CO)C(=O)Cc2cc(NC(=O)Cc3cn(C)c4ccccc34)ccc2O[C@H]1CN(C)C(=O)Nc1ccc(C(F)(F)F)cc1
  A = -1.6; B = 3; C = 1; D = -1.7

> O=C(N[C@@H]1CC[C@@H](CCn2cc(-c3ccccn3)nn2)O[C@@H]1CO)c1cccnc1
  A = 2.0; B = 0; C = 1; D = -2.2

> C[C@H](CO)N1C[C@H](C)[C@@H](CN(C)Cc2ccncc2)OCCCC[C@H](C)Oc2ccc(NC(=O)Nc3ccc(C(F)(F)F)cc3)cc2C1=O
  A = -4.7; B = 3; C = -8; D = 3.2

> NC(CCc1ccccc1)c1csc(Nc2ccc(C(=O)c3ccccc3)cc2)n1 (configuration not stated)
  A = 7.0; B = -64; C = -75; D = -18

> CCOC(=O)C1(C)CCCN(C(=O)c2ccccc2OC(F)(F)F)C1 (configuration not stated)
  A = -2.5; B = 4; C = -10; D = -1.4

> CNC[C@@H]1Oc2c(NC(=O)Nc3ccc(C(F)(F)F)cc3)cccc2C(=O)N([C@H](C)CO)C[C@H]1C
  A = 1.2; B = -4; C = -9; D = 1.1

> C[C@@H]1CCCCO[C@H](CN(C)C(=O)CCC(F)(F)F)[C@H](C)CN([C@@H](C)CO)C(=O)c2cc(NC(=O)NC3CCCCC3)ccc2O1
  A = 1.1; B = -3; C = 1; D = 1.0

> Cc1noc(C)c1S(=O)(=O)Nc1ccc2c(c1)C(=O)N([C@@H](C)CO)C[C@H](C)[C@H](CN(C)Cc1ccc3c(c1)OCO3)OCCCC[C@@H](C)O2
  A = 5.0; B = 0; C = -10; D = 0.8

> COCC(=O)N1CC2(C1)[C@H](c1ccc(-c3cccc(F)c3)cc1)[C@@H](CO)N2C(=O)COC
  A = -0.7; B = -2; C = -4; D = 0.5

> C[C@H]1CN([C@@H](C)CO)C(=O)c2cc(C#CC3CCCC3)cnc2O[C@@H]1CN(C)C(=O)Nc1ccccc1
  A = 0.0; B = 1; C = -8; D = 1.7

> CC(C)(C)C1CCN2CCCC(c3ccc([N+](=O)[O-])cc3)(C1)C21OCCO1 (configuration not stated)
  A = 13; B = -11; C = -19; D = -12

> C[C@@H]1CCCCO[C@@H](CN(C)C(=O)c2ccncc2)[C@H](C)CN([C@H](C)CO)C(=O)c2cc(NS(=O)(=O)c3cn(C)cn3)ccc2O1
  A = -2.8; B = 1; C = 2; D = 0.0

Gathered by group, the entries above with an aryl methoxy group
Screens by letter – A = MLL AF4-AF9 inh; B = rRNA inh HTS; C = rRNA inh HTS OD600; D = rRNA inh HTS RFP
> COc1ccccc1-c1ccc2c(c1)O[C@@H](CN(C)S(=O)(=O)c1ccc(F)cc1)[C@@H](C)CN([C@H](C)CO)S2(=O)=O
  A = -1.4; B = -1; C = 8; D = -0.6

> COc1ccc(S(=O)(=O)Nc2ccc3c(c2)C(=O)N([C@H](C)CO)C[C@@H](C)[C@H](CN(C)C(=O)Nc2c(C)noc2C)OCCCC[C@@H](C)O3)cc1
  A = -3.9; B = 1; C = 1; D = 2.0

> COc1ccc(S(=O)(=O)Nc2ccc3c(c2)C(=O)N([C@@H](C)CO)C[C@@H](C)[C@@H](CN(C)Cc2ccc4c(c2)OCO4)O3)cc1
  A = 2.0; B = 1; C = 3; D = 2.8

> COc1cc(-c2cc(NC(C)=O)c3ncc(-c4ccc(C(C)=O)cc4)n3c2)cc(OC)c1OC
  A = -0.7; B = 2; C = -2; D = 6.1

> COc1ccc(-c2sc3ccccc3c2-c2ccc(OC)cc2F)cc1
  A = 1.1; B = 16; C = 14; D = 0.1

> COc1ccc(NC(=O)Nc2ccc3c(c2)[C@@H]2C[C@@H](CC(=O)NCc4ccccn4)O[C@@H](CO)[C@@H]2O3)cc1
  A = -0.1; B = 0; C = -3; D = 0.0

> COc1ccc(NC(=O)N[C@H]2C=C[C@H](CC(=O)NC3CCCCC3)O[C@H]2CO)cc1
  A = 0.3; B = -9; C = -8; D = -0.1

Screening data from PubChem.
